Assay outcomes as filed in PubChem.
PABP FP inh: blocks human PABP binding to poly(A) RNA | 1% of 290,000 active | AID 2014 | inhibition, % at 35 µM | fluorescence polarization | P11940;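 active = 50% or more with normal probe brightness, or confirmed in later tests; inconclusive = above 50% with abnormal brightness, or retests that disagree; inactive = below 50% or failed in later tests; about a fifth of its hits are not listed in these tables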;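 also: calls also rest on retests at 20 µM and on dose response follow-up; controls were probe without protein and protein plus probe with vehicle; some compounds called inactive have numbers as strong as hits; many hits fall short of the cut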
eIF4H inh: inhibitors of RNA binding by human eIF4H; Q15056; eIF4H fluorescence polarization binding assay; inhibition, % at 35 µM; 0.94% of 290,000 active; AID 2012;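 active = 50% or more with normal probe brightness, or confirmed in later tests; inconclusive = above 50% with abnormal brightness, or retests that disagree; inactive = below 50% or failed in later tests; about a fifth of its hits are not listed in these tables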;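 also: calls also rest on retests at 20 µM and on dose response follow-up; 0% = protein and probe with vehicle and 100% = probe without protein; strong numbers were not always called active; many hits fall short of the cut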
HIV Env fusion: blocks HIV Env-driven cell-cell fusion; HeLa-JRFL Env/CEM21 cell fusion, luciferase; inhibition, % at 12.3 µM; 1.1% of 360,000 active;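 active = mean replicate inhibition score of at least 50 and every replicate individually at or above 50; inconclusive = only one of the two criteria met; inactive = mean below 50 and not all replicates reaching 50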;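 also: 0% = plate neutral controls and 100% = maraviroc near 300 nM; one replicate is shown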
MT1-MMP act inh: inhibitors of human MT1-MMP activation. P50281. HT1080 RFP-PRO-GFP cells, GFP/RFP ratio fluorescence, overnight; percent of plate control window, DMSO zero. GFP/RFP ratio change, % at 20 µM. 0.061% of 360,000 active. AID 651647;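 active = GFP/RFP ratio change of at least 30% with cell ATP level not reduced by more than half and red fluorescence within 50% of control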; also: strong numbers were not always called active
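Test system: HT1080 cells expressing an RFP-PRO-GFP fluorescent reporter construct / Compound dosing: single-point 20 µM compound, 1% DMSO / Schedule: cells overnight before dosing, compound overnight, 37 °C, 5% CO2 / Evaluation: GFP/RFP fluorescence ratio / Control set: DMSO and RFP-L50D-GFP cell wells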
Yeast UUG start: yeast start codon fidelity modulation | S. cerevisiae UUG-firefly luciferase reporter, luminescence/redox ratio | activity score, % at 18.7 µM | 0.13% of 350,000 active;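 active = replicate mean at a twofold rise or more, about +100% in these data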;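 also: firefly luciferase made from a UUG start codon reports start codon fidelity; reporter light over untreated wells divided by growth signal over untreated wells; some hits fall short of that in this replicate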
CSC inhib: blocks cancer stem cells; 1.1% of 300,000 active; cancer stem cell-like cells viability, luminescence; inhibition, % at 7.5 µM;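 active = mean at 75% or more and at least half the replicates too; inconclusive = mean and replicates disagree; tested in HMLE shEcad cells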;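 also: 0% = median of negative and 100% = median of positive control wells; the first replicate is given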
Rce1 inh: blocks yeast Ras-converting enzyme. Q03530. yeast membranes, quenched prenylated peptide cleavage fluorescence. calls only. 0.27% of 290,000 active;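 active = fall in fluorescence gain of 50% or more versus controls, with final raw signal at or below 3038400; inconclusive = same 50% fall but final raw signal above 3038400; inactive = fall in fluorescence gain under 50%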;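 also: plate controls were neutral control wells for no effect and wells lacking membranes for full effect; tested at 10 µM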
Target sequence (Q03530 whole entry, looked up): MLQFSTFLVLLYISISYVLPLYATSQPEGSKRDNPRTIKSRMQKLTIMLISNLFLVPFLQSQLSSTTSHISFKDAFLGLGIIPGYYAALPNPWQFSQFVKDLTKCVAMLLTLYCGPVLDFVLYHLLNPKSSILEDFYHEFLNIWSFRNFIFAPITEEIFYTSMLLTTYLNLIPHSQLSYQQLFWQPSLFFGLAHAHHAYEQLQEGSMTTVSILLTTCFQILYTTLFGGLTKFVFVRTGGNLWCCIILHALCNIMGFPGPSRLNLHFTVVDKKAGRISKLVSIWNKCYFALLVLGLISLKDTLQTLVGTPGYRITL
eIF4H inh retest: further read-out of eIF4H inh, marked with its call; inhibition, %; compound at 20 µM; confirmation average;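 mean of two retest wells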
PABP FP inh retest: second read-out of PABP FP inh, no call of its own (marks repeat the call); inhibition, %; compound at 20 µM; confirmation repeats;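 mean of two retest wells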
MT1-MMP act inh RFP: further read-out of MT1-MMP act inh, marked with its call; RFP signal change, %; measured here: RFP expression control read;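 0 = vehicle wells; hits needed this value within 50% of zero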
* marks the source's active call; other numbers are inactive results; i = inactive; ? = inconclusive; · = no result given; + = active, no number. Not all compounds are listed; rates above refer to the full screens.

SMILES	PABP FP inh	eIF4H inh	HIV Env fusion	MT1-MMP act inh	MT1-MMP act inh RFP	Yeast UUG start	CSC inhib	Rce1 inh	others
Cc1ccc(NC(=O)CN2C(=O)S/C(=C\c3ccc(OCC(=O)O)c(Br)c3)C2=O)cc1	10	26	0	-2	2	-5	-17	i
Cn1c(=O)[nH]c(=O)c2c1nc(Br)n2Cc1cccc(Br)c1	-2	0	-93	12	-6	-11	30	i
CCN1CCN(c2ccc(S(=O)(=O)N3CCCCC3)cc2NC(=O)c2cccc(OC(F)F)c2)CC1	·	·	-3	3	2	-10	3	i
CC12CCC3C(CCC4CC(O)CCC43C)C1CC(=O)C2 (configuration not stated)	·	·	14	4	0	-4	·	·
N/C(CC(=O)NCCOc1ccccc1)=N\O	14	6	·	2	3	-17	-10	i
CCn1c2ccccc2c2cc(CC(N)=O)ccc21	12	-4	34	0	-1	-5	-7	i
COc1cccc(/C=N/NC(=O)c2c(-c3ccccc3)noc2C)c1OC	16	-2	-6	-2	-4	-4	11	i
O=C(c1ccc2c(c1)CCC2)N1CCN(Cc2ccccc2)CC1	·	·	8	-3	1	-9	·	·
CCOC(=O)C(C)Oc1cccc2c(=O)n(CC(=O)Nc3cccc(OC)c3)ccc12 (configuration not stated)	-11	2	9	-2	-2	15	-10	i
CC1Cn2c(nc(=O)c3c2NCN(CCc2ccccc2)C3)S1 (configuration not stated)	-17	-7	15	4	1	6	1	·
CC(C)C(=O)Nc1ccc2c(c1)nc1n2CCSC1	-1	4	-124	0	4	-21	-11	i
COc1cc(OC)cc(-c2noc([C@@H]3O[C@H](CO)[C@@H](O)[C@H]3O)n2)c1	·	·	-18	4	-2	-36	·	·
NS(=O)(=O)c1ccc(N/C=C\C(=O)c2cccc3ccccc23)cc1	-4	-5	-4	-6	1	·	·	i
O=[N+]([O-])c1ccc(COc2ccccc2/C=N/O)cc1	1	-4	-20	6	5	·	25	i
COC(=O)C(Cc1ccccc1)NC(=O)CCc1c[nH]c2ccccc12 (configuration not stated)	6	0	-7	4	-1	-7	-3	i
Cc1ccc(CC(=O)N2CCN(c3ccccc3F)CC2)cc1	-4	-7	11	-2	2	·	-1	i
Clc1ccc(CN2CCCCCC2)cc1Cl	18	4	-4	1	4	-9	-7	i
Cc1nnc(NC(=O)C2CC(=O)N(c3ccc4c(c3)OCCO4)C2)s1 (configuration not stated)	·	·	2	-1	2	-17	·	·
CCN(CC)c1ccc(NC(=S)NC(=O)c2ccco2)cc1	-2	-7	-31	6	-4	·	15	i
CCc1ccc(NC(=O)c2cnc3n(c2=O)CCS3)cc1	7	9	-48	-4	-14	-15	-1	i
c1ccc(Nc2nc3ccccc3[nH]2)nc1	-6	9	·	10	1	-24	5	i
Cn1cccc1Cc1nnc(SCC(=O)Nc2ccc(F)cc2F)n1-c1ccc(F)cc1	-17	-3	13	2	6	23	·	i
Cc1cccc(C(=O)N[C@H](C(=O)Nc2nc(C)cs2)C(C)C)c1	-12	-6	-9	-2	-4	-26	-12	i
C/C(Cn1nc([N+](=O)[O-])cc1C)=N\NC(=O)c1cccc(Br)c1	4	-6	·	2	0	-21	4	i
O=C(NCc1ccccc1)NC1(C(=O)N2CCN3CCCC3C2)CCCCC1 (configuration not stated)	-1	6	·	0	-2	-40	1	i
C/C(=N\NC(=O)c1cccnc1)c1nnn(-c2nonc2N)c1C	8	-6	-7	9	6	·	-6	i
CN(C)c1ccc(/C=N/NC(=O)C(=O)/C=C2\NC3(CCCC3)Cc3ccccc32)cc1	11	15	·	-6	-5	-34	?	i
CCOC(=O)C1CCCN(C2=NC(=O)/C(=C/c3ccc(OC)cc3OC)S2)C1 (configuration not stated)	11	-14	2	2	1	-1	3	i
CC(=O)C1=C(C)NC(=O)NC1c1cccc([N+](=O)[O-])c1O (configuration not stated)	4	7	6	2	4	·	-14	i
Cc1ccccc1C(=O)Nc1nnc(-c2cccnc2)o1	-27	-1	0	0	3	-18	-6	i
CCc1ccc(C(=O)NCc2cnn(C)c2)s1	74	-4	7	4	8	-8	-11	i	eIF4H inh retest=16;PABP FP inh retest=19
Cc1ccc(S(=O)(=O)N2CCOCC2)cc1C(=O)N1CCOCC1	-6	-15	-110	3	1	-14	3	i
O=C(COc1ccccc1Cl)Nc1cccc(S(=O)(=O)NC2=NCCCCC2)c1	·	·	-15	2	-2	11	-6	i
Cc1ccc(OCCNC(=O)c2ccc(C)cc2)cc1	3	4	-42	2	3	-7	7	i
COc1ccc(C(=O)COC(=O)c2nn(C)c(=O)c3ccccc23)c(OC)c1	24	37	-10	4	1	·	-14	·
Cc1ccc(C(=O)Nc2ccc(S(=O)(=O)Nc3ncccn3)cc2)cc1[N+](=O)[O-]	-2	-5	-130	-4	-1	-8	-5	i
C#Cc1ccc(NC(=O)C2(C)CCN2C(=O)Cc2ccc(C(C)C)cc2)cc1 (configuration not stated)	·	·	25	1	-27	-19	·	·
NC1=NC(=O)/C(=C/c2cccs2)S1	-2	-14	·	-2	0	-9	1	i
CCOC(=O)c1sc2nc3c(SCC(=O)O)cc(C(=O)c4cc(F)ccc4O)cn3c(=O)c2c1C	4	12	·	11	1	-9	26	i
CCc1ccc(-c2cc(C)no2)cc1S(=O)(=O)N1CC(=O)Nc2ccccc21	2	-6	11	-1	-5	-12	25	i
Cc1ccccc1N=CC1=C(O)c2ccccc2C1=O	-6	-5	-28	-7	-7	·	2	i
O=C(NCc1ccc2c(c1)OCO2)c1cc(-c2ccccn2)nc2ccccc12	-10	-3	6	1	3	-35	-2	i
C#CCOCCOCCOCCNc1nc(N2CCN(C(=O)[C@H]([C@@H](C)CC)n3cc(CCC(=O)O)nn3)CC2)nc(N2CCN(C(=O)[C@H](CCCCN)n3cc(CC(C)O)nn3)CC2)n1 (some centres not stated)	·	·	-28	2	3	-5	·	·
CC1CCCC(NC(=O)CN2C(=O)NC(Cc3c[nH]c4ccccc34)C2=O)C1C (configuration not stated)	·	·	-15	7	0	-2	30	·
NC(=O)NCc1ccc(C(=O)OCc2ccncc2)cc1	3	2	5	0	-6	-17	-8	i
CCN(Cc1ccccc1)C(=O)CN1C(=O)c2ccccc2S1(=O)=O	·	·	-1	2	6	18	-11	i
N#CCCN(C(=O)COC(=O)c1ccc(S(=O)(=O)N2CCOCC2)cc1)c1ccccc1	·	·	-119	3	4	-15	-4	·
CC1CCCCN1CCCNc1ccc(C(CC(N)=O)NC(=O)Cc2ccc(Br)cc2)cc1[N+](=O)[O-] (configuration not stated)	7	4	11	7	2	-8	16	i
COCCNC(=O)c1ccc2c(=O)n(Cc3ccco3)c(SCC(=O)NC3CCCC3)nc2c1	16	4	-18	2	3	-5	1	i
COc1cc(/C=N/NC(=O)Cn2cnc3c2c(=O)n(C)c(=O)n3C)cc(OC)c1OC	1	6	4	5	6	-12	-4	i
CCOC(=O)Cn1c(=O)n(Cc2ccco2)c(=O)c2ccc(C(=O)NCCc3ccccc3)cc21	7	7	6	-4	-2	4	-2	i
Nc1nc(CSc2ccccc2)nc(N2CCCCC2)n1	2	-1	-24	-1	-5	·	-14	i
COc1ncnc2c1oc1nc(CC(C)C)c3c(c12)CC(C)(C)OC3	2	0	-14	-10	-5	-19	-10	·
CC(=O)Nc1cccc(C(=O)/C=C/c2ccc(F)cc2)c1	-10	4	3	-3	-9	-9	46	i
Cc1ccc(C)c(CN2CCC(CNC(=O)Nc3ccc(Cl)cc3)CC2)c1	-4	-2	13	8	-6	-10	19	i
CCSc1nnc(-c2cccnc2)n1-c1ccc(C)c(Cl)c1	1	-13	·	-1	-4	-17	-5	·
Cn1c(-c2ccc3nc(N)sc3c2)nc2cc(N)ccc21	4	37	i	9	8	-19	12	i
CCCNC(=O)Cn1cnc2sc(C(=O)N3CCN(Cc4ccc5c(c4)OCO5)CC3)c(C)c2c1=O	2	7	13	4	-5	-35	-7	i
CCn1nnnc1SCC(=O)Nc1nc(C)c(C)s1	8	0	-25	3	-2	·	-7	+
C=CCN1C(=O)/C(=N/n2cnnc2)c2ccccc21	2	-2	·	-2	2	-19	24	i

Overlap with the part before: 2 entries, followed by the next part.
SMILES	PABP FP inh	eIF4H inh	HIV Env fusion	MT1-MMP act inh	MT1-MMP act inh RFP	Yeast UUG start	CSC inhib	Rce1 inh	others
CCn1nnnc1SCC(=O)Nc1nc(C)c(C)s1	8	0	-25	3	-2	·	-7	+
C=CCN1C(=O)/C(=N/n2cnnc2)c2ccccc21	2	-2	·	-2	2	-19	24	i
O=c1[nH]c(SCc2ccc(F)cc2Cl)nc2ccccc12	-17	-2	-2	1	-8	-10	-12	i
COc1ccc(C=C2SC(=S)N(CCCN3CCOCC3)C2=O)c(OC)c1	·	·	-14	-1	-2	6	·	·
Cc1ccc(NC(=O)CNS(=O)(=O)c2cccs2)cc1F	-7	2	·	-6	-8	-14	-1	i
CC(Sc1nc2c(N)ncnc2n1CCOc1ccccc1)C(=O)O (configuration not stated)	8	-4	9	5	6	-11	-12	i
CCOc1ccccc1NC(=O)CCNS(=O)(=O)c1ccccc1	6	-5	-4	1	-1	-13	7	i
Cc1cccc(OCCN2CSC(=S)N(C)C2)c1	-1	-1	·	4	3	·	58	i
CCN(Cc1ccccc1)C(=O)c1cccnc1	-12	-8	18	3	5	-4	-8	i
C/C(=N\NC(=O)c1ccco1)c1ccc(NC(=O)c2cccs2)cc1	0	-10	-23	5	1	·	-9	i
C/C(=C\C(=O)c1ccc(Cl)cc1)Nc1ccc(N2CCOCC2)cc1	-1	-10	-4	7	-1	-15	-1	i
Cc1[nH]c2ccccc2c1C(=O)CSCC(=O)O	14	-4	-21	0	7	-6	-5	i
CCCCNC(=O)Nc1ccccc1C(=O)NCCC	-9	-13	?	1	0	-9	-3	i
O=C(N/N=C/c1cccc(F)c1)c1ccc(Cl)cc1	12	-5	-3	5	4	·	-4	i
Nc1ncnc2c1ncn2CCN1CCOCC1	1	-10	·	3	1	-15	-3	i
COc1ccc(NC(=O)CN(C)C(=O)c2c(C)nn(-c3ccccc3)c2Cl)cc1	·	·	-4	-1	-1	-9	-9	i
CCCCn1nnnc1SCC(=O)NNC(=O)c1ccco1	4	-6	-6	-1	0	·	-20	i
COC(=O)c1ccccc1NC(=O)[C@@H]1CCC(=O)N1C1OC(=O)c2c1ccc(OC)c2OC (some centres not stated)	70	33	·	10	7	21	4	i	eIF4H inh retest=33;PABP FP inh retest=13
COC(=O)c1c(-c2ccc(F)cc2)noc1N	-2	-4	·	-1	-1	-14	9	i
S=C(Nc1ccc2nsnc2c1)NC1CCCCC1	7	11	-12	-12	0	·	10	i
Cc1ccc(-n2c(C)cc(/C=N/NC(=O)c3ccncc3)c2C)cc1C	-13	0	-15	0	-3	·	-4	i
CCOC(=O)C1(N(CC)CC)Sc2cc(C)ccc2NC1=O (configuration not stated)	-5	4	9	-6	-13	-18	37	i
O=C1c2cccc3cccc(c23)C(=O)N1CCO	·	·	-41	1	3	-25	·	·
CC(=O)Nc1nc(C)c(C(C)C)s1	-2	-20	2	-1	-2	·	-20	i
COC(=O)C1CCN(c2c([N+](=O)[O-])cc(C(F)(F)F)cc2[N+](=O)[O-])CC1	-2	-17	·	3	0	·	·	i
CCN(CC)C(=O)c1[nH]cnc1C(=O)Nc1ccc(OC)cc1	12	-4	-3	3	-1	-19	-4	i
